# Screening data from PubChem BioAssay.
# Anesthetic bind: candidate novel general anesthetic via apoferritin binding; Potency, µM (titrated, usually from 77.5 µM), without a hit: at the highest dose activity change, negative = displacement, hits mostly inhibitors; P02791; 350,000 compounds, 0.074% hits; apoferritin/1-aminoanthracene competitive binding, fluorescence; AID 485281; also: potency is read from the fitted curve at half-maximal effect; nearly all actives have a fitted effect of over 20% in size
# Target sequence (P02791 2-175 limits assumed): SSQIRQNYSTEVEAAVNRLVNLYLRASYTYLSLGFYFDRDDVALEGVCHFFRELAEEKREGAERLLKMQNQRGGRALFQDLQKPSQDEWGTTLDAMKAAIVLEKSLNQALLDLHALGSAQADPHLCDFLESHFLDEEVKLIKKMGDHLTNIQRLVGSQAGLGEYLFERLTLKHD
#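 10 uM apoferritin + 50% sat. 1-AMA, PBS; cpd 10 min RT; Ex380/Em535 endpoint; normalized to free probe vs complex; 4-param Hill fit; propofol titration as pos. ctrl.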
# Tb PGK inh: T. brucei PGK inhibition. PGK/GAPDH coupled, Kinase-Glo luminescence, 60 min. 380,000 compounds, 0.043% hits. P07378. Potency, µM (series often up to 57.5 µM), inactives show at the highest dose activity change, negative = inhibition, actives largely listed as inhibitors; also: potency is read from the fitted curve at half-maximal effect; nearly all actives have a fitted effect of over 60% in size
#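 Luminescent ATP detection (Kinase-Glo Plus) follows a 60-minute room-temperature incubation, with wells lacking PGK as controls. Buffer: 100 mM TEA (pH 7.6), 5 mM MgCl2, 0.01% Tween-20. Coupling enzyme GAPDH (100 nM final) supplies unstable 1,3-BPG in-well.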
# RXFP1 antagonist: blocks the human relaxin receptor RXFP1; Q9HBX9; HEK293-RXFP1, relaxin-stimulated cAMP HTRF, 30 min; active compounds read low; activity change, negative = inhibition, % at 57.5 µM; 350,000 compounds, 0.59% hits; AID 1259400;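 active = activity change of -60% or lower, but not beyond a set lower limit; inconclusive = change between -60% and -40%, or beyond the set limit; inactive = change above -40%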
# BLM helicase inh: blocks DNA unwinding by human BLM helicase; Potency, µM (highest dose often 56.1 µM), for the others: at the top dose activity change, negative = inhibition, most hits filed as inhibitors; recombinant BLM DNA unwinding, fluorescence dequenching; 350,000 compounds, 0.2% hits; P54132;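 also: potency is read from the fitted curve at half-maximal effect; plate controls were vehicle for no effect and no enzyme for full effect; nearly all actives have a fitted effect of over 35% in size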
# Starred values were filed as active, the others as inactive; i = inactive; ? = inconclusive; . = not tested or not shown; & = joins results of further samples; [ ] = dose if it differs, or a comment. Unless noted, calls follow the shape of the dose curve; as a rule, active = well fitted curve in the direction sought with a large enough effect; inconclusive = small, poorly fitted or top-dose-only effect, or another doubt; inactive = no such curve, though single readings can be large; an effect the other way counts as inactive or inconclusive. Unless noted, % is scaled to controls: 0 for no effect and ±100 for the full control effect. Some of the compounds tested (hit frequency here may not be typical).
# Each structure is followed by: Anesthetic bind, Tb PGK inh, RXFP1 antagonist, BLM helicase inh
1) O=C(O)COCCN1CCN([C@H](c2ccccc2)c2ccc(Cl)cc2)CC1
 : -4.5%, i, ., -2.9%
2) CC(=O)OCC1=C(C(=O)O)N2C(=O)[C@@H](NC(=O)Cc3cccs3)[C@@H]2SC1
 : 15.6%[29.3 µM], ., ., 2.6%[21.4 µM]
3) O=C(CN1C(=O)S/C(=C/C=C/c2ccccc2)C1=O)Nc1ccc(C(=O)O)cc1
 : -11.5%, i, -33.8, -13.3%
4) N=C(N)n1c(N)nc2ccccc2c1=O
 : 9.1%, -9.6%, -13.9, 0.9%
5) CC1(C)N([O-])c2cc([N+](=O)[O-])ccc2[N+]1=O
 : -12.1%, -9.0%, 2.0, -12.2%
6) CN(c1ccc(O)cc1)c1nc(O)c(C2=c3ccccc3=NC2=O)s1
 : ., -3.0%, -12.6, .
7) COc1ccc(S(=O)(=O)N2Cc3ccccc3CC2C(=O)O)cc1 (stereo not drawn)
 : -8.7%, -8.7%, 4.3, -11.4%
8) O=C(COc1cccnc1[N+](=O)[O-])Nc1ncc(Cl)cc1Cl
 : ., -18.2%, -10.4, .
9) Cc1cccc(N2CC(C(=O)Nc3nnc(SCCN4CCOCC4)s3)CC2=O)c1 (stereo not drawn)
 : ?, i, -15.0, -21.8%
10) Cc1cnc(NC(=O)C2=C(O)c3ccccc3S(=O)(=O)N2C)s1
 : -9.3%&-16.3%, -4.8%&-5.0%&-4.4%&0.6%, 3.7, -3.7%&-1.6%&-8.5%
11) CCc1nc2oc3ccccc3c(=O)c2c(=O)n1-c1ccc(C)cc1
 : -17.4%, -6.8%, -6.8, -26.3%
12) O=C(CN1C(=O)S/C(=C\C=C\c2ccccc2)C1=O)Nc1ccc(C(=O)O)cc1
 : -9.3%, ?, -6.9, -23.0%
13) C=CCn1c(CSc2nc3ccccc3s2)nnc1SCC(=O)NCc1ccco1
 : -18.3%, 1.3%, -4.3, ?
14) Cc1ccc(CN2C(=O)N/C(=C/c3ccc(-c4ccc(C(=O)O)cc4)o3)C2=O)cc1
 : 6.0%, -13.5%, -20.1, -4.0%
15) CN(CC(=O)Nc1ccc(F)c(F)c1F)C(=O)CCc1nc2sc3c(c2c(=O)[nH]1)CCCC3
 : ., -2.4%, -62.9*, .

# (next part)
# Each structure is followed by: Anesthetic bind, Tb PGK inh, RXFP1 antagonist, BLM helicase inh
16) CC(C)[C@H](NC(=O)c1ccco1)C(=O)OCc1cc(=O)n2c(n1)sc1ccccc12
 : -6.8%, -23.1%, 18.6, -26.7%
17) N=C(N)c1ccc(OCCCCCOc2ccc(C(=N)N)cc2)cc1
 : -7.5%, -6.6%, -6.0, 139.0%[activator]
18) CCN(CC(=O)Nc1c(F)cccc1F)C(=O)c1cccc(-n2cccc2)c1
 : ., ?, 2.2, .
19) Cc1ccc(S(=O)(=O)Nc2cc(=O)[nH]c(SCC(=O)Nc3ccccc3Cl)n2)cc1
 : -7.6%, -9.5%, -2.9, -16.0%
20) Cc1ccc(-c2nn(CC(=O)Nc3ccc4c(c3)nc3n4CCOC3)c(=O)c3ccccc23)cc1
 : ?, -0.4%, -3.1, 4.2%
21) CC(C)(C)Cc1nnc(NC(=O)Cc2cccs2)s1
 : -3.5%, -10.5%, 2.1, -8.8%
22) CN(C)C(=O)c1ccc(NC(=O)c2cc(-c3ccco3)nc3ccccc23)cc1
 : -12.5%, -14.8%, -20.1, -9.0%
23) COc1c(N2CCNC(C)C2)c(F)cc2c(=O)c(C(=O)O)cn(C3CC3)c12 (stereo not drawn)
 : ., ., -7.3, -14.9%
24) CCN(CC)CCn1nc2c3c(cccc3c1=O)-c1ccccc1-2
 : -14.2%, -9.3%, -2.9, 3.6%
25) CCN(CC(=O)Nc1c(F)cccc1F)C(=O)CCc1nc2sc3c(c2c(=O)[nH]1)CCCC3
 : ., -17.6%, -28.8, .
26) O=c1c2ccccc2nc2ccc(NCc3ccco3)nn12
 : -4.4%, -10.2%, ., -10.7%
27) COc1ccc(NS(=O)(=O)c2cccc(C(=O)NNC(=O)c3cccn3C)c2)cc1
 : -19.8%, -2.9%, -3.1, -23.3%
28) CCc1ccc(CNC(=O)Cc2ccc(NC(=O)C3=C(C)OCCS3)cc2)cc1
 : -14.4%, ?, -18.9, -18.9%
29) Cc1cccc(N2CC(C(=O)Nc3nnc(SCCC4OCCO4)s3)CC2=O)c1 (stereo not drawn)
 : ?, -6.6%, -25.0, -23.5%
30) Cc1ccc(C(=O)CSc2nc(O)cc(=O)[nH]2)cc1C
 : -9.6%, -9.9%, 4.2, -4.6%
31) COc1ccc(C(=O)Nc2cc3c(oc2=O)CCCC3=O)cc1
 : -11.2%, -16.4%, -5.8, -25.0%
32) Cc1cnc(NC(=O)C2C(=O)c3ccccc3S(=O)(=O)N2C)s1 (stereo not drawn)
 : -4.7%, -6.4%, ., 4.2%
33) CCn1c(SCC(=O)N/N=C/C=C/c2ccco2)nnc1-c1ccccc1
 : -8.4%, -12.4%, 4.7, -18.1%

# Some of these compounds in order of molar mass, smallest number first.
# Each structure is followed by: Anesthetic bind, Tb PGK inh, RXFP1 antagonist, BLM helicase inh
30) Cc1ccc(C(=O)CSc2nc(O)cc(=O)[nH]2)cc1C
 : -9.6%, -9.9%, 4.2, -4.6%
26) O=c1c2ccccc2nc2ccc(NCc3ccco3)nn12
 : -4.4%, -10.2%, ., -10.7%
21) CC(C)(C)Cc1nnc(NC(=O)Cc2cccs2)s1
 : -3.5%, -10.5%, 2.1, -8.8%
8) O=C(COc1cccnc1[N+](=O)[O-])Nc1ncc(Cl)cc1Cl
 : ., -18.2%, -10.4, .
7) COc1ccc(S(=O)(=O)N2Cc3ccccc3CC2C(=O)O)cc1 (stereo not drawn)
 : -8.7%, -8.7%, 4.3, -11.4%
10) Cc1cnc(NC(=O)C2=C(O)c3ccccc3S(=O)(=O)N2C)s1
 : -9.3%&-16.3%, -4.8%&-5.0%&-4.4%&0.6%, 3.7, -3.7%&-1.6%&-8.5%
18) CCN(CC(=O)Nc1c(F)cccc1F)C(=O)c1cccc(-n2cccc2)c1
 : ., ?, 2.2, .
22) CN(C)C(=O)c1ccc(NC(=O)c2cc(-c3ccco3)nc3ccccc23)cc1
 : -12.5%, -14.8%, -20.1, -9.0%
2) CC(=O)OCC1=C(C(=O)O)N2C(=O)[C@@H](NC(=O)Cc3cccs3)[C@@H]2SC1
 : 15.6%[29.3 µM], ., ., 2.6%[21.4 µM]
14) Cc1ccc(CN2C(=O)N/C(=C/c3ccc(-c4ccc(C(=O)O)cc4)o3)C2=O)cc1
 : 6.0%, -13.5%, -20.1, -4.0%
12) O=C(CN1C(=O)S/C(=C\C=C\c2ccccc2)C1=O)Nc1ccc(C(=O)O)cc1
 : -9.3%, ?, -6.9, -23.0%
28) CCc1ccc(CNC(=O)Cc2ccc(NC(=O)C3=C(C)OCCS3)cc2)cc1
 : -14.4%, ?, -18.9, -18.9%
9) Cc1cccc(N2CC(C(=O)Nc3nnc(SCCN4CCOCC4)s3)CC2=O)c1 (stereo not drawn)
 : ?, i, -15.0, -21.8%
19) Cc1ccc(S(=O)(=O)Nc2cc(=O)[nH]c(SCC(=O)Nc3ccccc3Cl)n2)cc1
 : -7.6%, -9.5%, -2.9, -16.0%
20) Cc1ccc(-c2nn(CC(=O)Nc3ccc4c(c3)nc3n4CCOC3)c(=O)c3ccccc23)cc1
 : ?, -0.4%, -3.1, 4.2%
25) CCN(CC(=O)Nc1c(F)cccc1F)C(=O)CCc1nc2sc3c(c2c(=O)[nH]1)CCCC3
 : ., -17.6%, -28.8, .
15) CN(CC(=O)Nc1ccc(F)c(F)c1F)C(=O)CCc1nc2sc3c(c2c(=O)[nH]1)CCCC3
 : ., -2.4%, -62.9*, .
